# PABP FP inh: blocks human PABP binding to poly(A) RNA | fluorescence polarization | P11940 | actives 1% (n = 290,000) | inhibition, % at 35 µM;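 active means 50% or more with normal probe brightness, or confirmed in later tests; inconclusive means above 50% with abnormal brightness, or retests that disagree; inactive means below 50% or failed in later tests; about a fifth of its hits are not listed in these tables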;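 further: calls also rest on retests at 20 µM and on dose response follow-up; controls were probe without protein and protein plus probe with vehicle; some compounds called inactive have numbers as strong as hits; many hits fall short of the cut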
# Target sequence (P11940 whole entry, looked up): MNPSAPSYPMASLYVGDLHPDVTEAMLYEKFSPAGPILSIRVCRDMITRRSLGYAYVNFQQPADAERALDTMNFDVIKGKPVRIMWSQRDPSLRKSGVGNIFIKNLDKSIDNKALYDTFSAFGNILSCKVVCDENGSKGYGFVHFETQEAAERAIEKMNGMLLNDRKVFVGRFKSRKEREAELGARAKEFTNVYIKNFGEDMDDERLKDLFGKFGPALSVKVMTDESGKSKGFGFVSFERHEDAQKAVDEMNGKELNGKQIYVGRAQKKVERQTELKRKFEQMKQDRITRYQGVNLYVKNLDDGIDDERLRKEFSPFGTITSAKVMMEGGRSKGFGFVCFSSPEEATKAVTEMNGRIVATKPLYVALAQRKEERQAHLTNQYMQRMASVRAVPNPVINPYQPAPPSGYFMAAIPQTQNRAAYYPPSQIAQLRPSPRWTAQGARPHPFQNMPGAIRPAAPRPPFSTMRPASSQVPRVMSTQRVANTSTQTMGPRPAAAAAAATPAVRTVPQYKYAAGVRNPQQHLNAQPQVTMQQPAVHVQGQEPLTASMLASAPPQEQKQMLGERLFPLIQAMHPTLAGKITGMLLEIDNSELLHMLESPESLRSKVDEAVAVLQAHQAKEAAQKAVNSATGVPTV
# MT1-MMP act inh: inhibitors of human MT1-MMP activation; P50281; HT1080 RFP-PRO-GFP cells, GFP/RFP ratio fluorescence, overnight; percent of plate control window, DMSO zero; GFP/RFP ratio change, % at 20 µM; actives 0.061% (n = 360,000); AID 651647;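 active means GFP/RFP ratio change of at least 30% with cell ATP level not reduced by more than half and red fluorescence within 50% of control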; further: strong numbers were not always called active
#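 Assay system: HT1080 cells carrying an RFP-PRO-GFP reporter | Dosing: Single dose of 20 µM compound, 1% DMSO final | Incubation: Cells overnight before dosing, compound overnight, 37 °C, 5% CO2 | Evaluation: GFP/RFP fluorescence ratio | Control set: DMSO and RFP-L50D-GFP cell wells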
# eIF4H FP inh: inhibitors of RNA binding by human eIF4H. Q15056. eIF4H fluorescence polarization binding assay. inhibition, % at 35 µM. actives 0.94% (n = 290,000);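 active means 50% or more with normal probe brightness, or confirmed in later tests; inconclusive means above 50% with abnormal brightness, or retests that disagree; inactive means below 50% or failed in later tests; about a fifth of its hits are not listed in these tables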;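 further: calls also rest on retests at 20 µM and on dose response follow-up; 0% = protein and probe with vehicle and 100% = probe without protein; strong numbers were not always called active; many hits fall short of the cut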
# Rce1 inh: blocks yeast Ras-converting enzyme | yeast membranes, quenched prenylated peptide cleavage fluorescence | calls only | actives 0.27% (n = 290,000) | AID 2563;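 active means fall in fluorescence gain of 50% or more versus controls, with final raw signal at or below 3038400; inconclusive means same 50% fall but final raw signal above 3038400; inactive means fall in fluorescence gain under 50%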;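 further: plate controls were neutral control wells for no effect and wells lacking membranes for full effect; tested at 10 µM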
# Yeast UUG start: alters start codon recognition fidelity in yeast. actives 0.13% (n = 350,000). activity score, % at 18.7 µM. S. cerevisiae UUG-firefly luciferase reporter, luminescence/redox ratio;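 active means replicate mean at a twofold rise or more, about +100% in these data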;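 further: firefly luciferase made from a UUG start codon reports start codon fidelity; reporter light over untreated wells divided by growth signal over untreated wells; some hits fall short of that in this replicate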
# Env fusion inh: HIV envelope-mediated fusion inhibition. actives 1.1% (n = 360,000). HeLa-JRFL Env/CEM21 cell fusion, luciferase. inhibition, % at 12.3 µM;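 active means mean replicate inhibition score of at least 50 and every replicate individually at or above 50; inconclusive means only one of the two criteria met; inactive means mean below 50 and not all replicates reaching 50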;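 further: 0% = plate neutral controls and 100% = maraviroc near 300 nM; one replicate is shown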
# CSC inhib: blocks cancer stem cells; inhibition, % at 7.5 µM; actives 1.1% (n = 300,000); cancer stem cell-like cells viability, luminescence;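 active means mean at 75% or more and at least half the replicates too; inconclusive means mean and replicates disagree; tested in HMLE shEcad cells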;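 further: 0% = median of negative and 100% = median of positive control wells; the first replicate is given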
# eIF4H FP inh retest: further read-out of eIF4H FP inh, marked with its call; inhibition, %; compound at 20 µM; confirmation average;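 mean of two retest wells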
# PABP FP inh retest: also measured in PABP FP inh; calls as there; inhibition, %; compound at 20 µM; confirmation repeats;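 mean of two retest wells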
# MT1-MMP act inh RFP: second read-out of MT1-MMP act inh, no call of its own (marks repeat the call); RFP signal change, %; measured here: RFP expression control read;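 0 = vehicle wells; hits needed this value within 50% of zero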
# * = called active by the depositor; i = inactive; u = inconclusive; x = not tested or not shown; & = joins results of further samples. Only part of the results is shown, so the mix of outcomes need not match the whole.
SMILES,PABP FP inh,MT1-MMP act inh,MT1-MMP act inh RFP,eIF4H FP inh,Rce1 inh,Yeast UUG start,Env fusion inh,CSC inhib,others
CC(C)CC(=O)N1CCN(C(=O)c2ccc(F)cc2)CC1,12,-3,-1,-4,i,-10,5,55,
Cc1cc2oc(=O)cc(CN3CCCCC3)c2cc1C,-3,-2,-2,9,i,-3,6,-4,
COC(=O)c1ccccc1NC(=O)CN1C(=O)CSC1=O,7,-1,2,0,i,-3,0,-8,
NC(=O)c1cc(S(=O)(=O)N2CCOCC2)cs1,-2,1,0,-2,i,-16,1,-10,
O=C(NNC(=O)C1CCCN(S(=O)(=O)c2cccc(F)c2)C1)C1CC1 (stereo unspecified),-1,0,1,3,i,10,-4,11,
COc1cccc(C(=O)N/N=c2\sc3ccccc3n2C)c1,5,1,5,3,i,x,-1,-21,
COc1cccc(C2C(C(C)=O)=C(O)C(=O)N2CCNCCO)c1 (stereo unspecified),7,x,x,-5,i,x,x,-5,
COc1ccc(C(=O)CN2Cc3ccccc3C2=N)cc1,-3,-4,2,-1,i,x,-85,2,
COc1ccc(N(C)S(=O)(=O)c2cccc(C(=O)N3CCN(c4ccccc4)CC3)c2)cc1,x,7,-8,x,x,-10,13,x,
CCOC(=O)c1nn(-c2ccc(F)cc2)cc1O,10,1,3,8,i,x,-45,3,
Cc1nnc(Nc2ccc3c(c2)OCO3)c2ccccc12,22,-6,5,6,i,-16,x,-24,
O=C(NCc1ccccc1F)c1cccc(S(=O)(=O)N2CCCCC2)c1,x,3,0,x,x,x,-3,-4,
CC(C)C(=O)N1CCC(c2nc(-c3ccc(S(=O)(=O)N4CCN(C)CC4)cc3)no2)CC1,-7,1,-2,-10,i,x,22,-21,
CC(C)(O)P(=O)(O)CCc1ccccc1,-6,2,6,-11,i,-11,3,17,
Cc1cc(C)c(S(=O)(=O)N2C[C@H]3CON(C)[C@H]3C[C@H]2c2ccc(N3CCCCC3)cc2)c(C)c1,x,-7,2,x,x,4,-9,x,
CNc1c(NS(=O)(=O)c2ccc(Br)cc2)c(=O)oc2ccccc12,-8,-2,-2,-10,i,-15,-4,-8,
CCN(CC)CCCNC(=O)c1c(O)c2c([nH]c1=O)CCCC2,-4,-1,9,0,i,x,x,53,
COc1ccc(/C=C(\NC(=O)c2ccc(Cl)cc2)C(=O)NCCCN2CCOCC2)cc1OC,2,-2,0,0,i,-15,16,1,
c1ccc(-c2cn3c4c(sc3n2)CCCC4)cc1,1,-1&5,1&-2,7,i,-80&-74,-172,42,
CCC1CCCCN1CC(=O)Nc1cc(OC)c(OC)cc1C#N (stereo unspecified),-7,-1,4,-5,x,x,-3,x,
CCc1ccc2c(CN3CCc4ccccc43)cc(=O)oc2c1,17,0,1,11,i,-15,x,-9,
COc1ccc(Cl)cc1C(=O)CSc1nnnn1C1CCCCC1,6,3,-5,-5,i,-1,-7,-5,
CN(CC(=O)Nc1cccc(F)c1)C(=O)CSc1ccc(Br)cc1,x,9,1,x,i,-22,x,1,
C[C@@H](NC(=O)OC(C)(C)C)C(=O)NCC1CCC(C(=O)N[C@@H](Cc2ccccc2)C(=O)O)CC1 (stereo partly specified),2,-2,-4,-12,i,-3,10,5,
COc1cc(=O)n(C)c2c(O)cccc12,-1,0,0,3,i,-10,x,-1,
N#CC12CCCCC1CC1CCCCC1(C#N)N2Cc1cccnc1 (stereo unspecified),2,-4,4,1,i,-21,x,-4,
c1ccc(-c2ccn3nnnc3n2)cc1,4,4,6,0,i,-21,-136,6,
Cc1nc2ccc(NC(=S)NC3CCCCC3)cc2nc1C,6,1,-2,0,i,x,-40,x,
CCOc1ccc(-c2nnc(-c3snc(-c4ccc(F)cc4)c3N=CN(C)C)o2)cc1,5,-6,-2,8,i,-16,-35,-10,
CCCCn1c(SCC(=O)c2cc(OC)ccc2OC)nc2cc(S(N)(=O)=O)ccc21,-7,5,6,-3,i,-5,x,6,
Cc1ccc(-c2nc(NCc3ccco3)n(S(C)(=O)=O)n2)cc1,4,3,5,2,i,-21,-18,-6,
COc1cccc(C=NCCCN=Cc2cccc(OC)c2O)c1O,0,1,1,5,i,-9,0,3,
COc1ccc(C(=O)C2CCCN(C(=O)c3n[nH]c4c3CCCC4)C2)cc1OC (stereo unspecified),5,3,-1,-2,i,-8,2,-7,
CC(C)(C)N(Cc1ccccc1)C(=O)c1ccncc1,2,-2,0,-14,i,-8,4,-13,
COc1ccc(NC(=O)c2ccc3c(c2)C(=O)N(Cc2cccnc2)C3=O)c(OC)c1,-3,6,4,0,i,-3,-29,1,
CC1CCCCC12NC(=O)N(CC(=O)Nc1ccc(S(=O)(=O)N3CCOCC3)cc1)C2=O (stereo unspecified),7,3,-1,5,i,-6,15,-1,
COc1cccc2cc(C(C)=O)oc12,2,-5,-2,-7,i,-15,0,1,
CNCc1cc2ccc(C)cc2[nH]c1=O,10,-3,5,4,i,-25,x,19,
Cc1csc(=O)n1CC(=O)Nc1ccc(S(C)(=O)=O)cc1,x,-1,1,x,x,-17,-4,-17,
CCOc1ccc(CCNC(=O)COC(=O)c2ccc3c(c2)OCCO3)cc1OCC,x,1,-1,x,i,-11,3,-6,
c1cc(C(c2nnnn2C2CCCCC2)N2CCN3CCCC3C2)ccn1 (stereo unspecified),30,-22,-5,-7,i,-9,x,-4,
COc1ccc(S(=O)(=O)NCc2cccnc2)cc1C,13,1,2,-2,i,-17,9,2,
CCN(CC)C(=O)C1=C(C)N(Cc2ccc(C(C)(C)C)cc2)C(=O)C(CC(=O)NCc2cccc3ccccc23)C1 (stereo unspecified),x,-12,-17,x,x,-3,-6,x,
Cc1nc(S/C(=C/c2ccc(-c3cccc(Cl)c3)o2)C(=O)O)n[nH]1,4,-13,-2,41,i,-5,x,19,
O=C(O)c1ccc(S(=O)(=O)NC2CCCCC2)cc1,14,6,1,-14,x,x,x,-6,

# Two records drawn at random from those above, as already listed:
SMILES,PABP FP inh,MT1-MMP act inh,MT1-MMP act inh RFP,eIF4H FP inh,Rce1 inh,Yeast UUG start,Env fusion inh,CSC inhib,others
C[C@@H](NC(=O)OC(C)(C)C)C(=O)NCC1CCC(C(=O)N[C@@H](Cc2ccccc2)C(=O)O)CC1 (stereo partly specified),2,-2,-4,-12,i,-3,10,5,
COc1ccc(S(=O)(=O)NCc2cccnc2)cc1C,13,1,2,-2,i,-17,9,2,

# Continued.
SMILES,PABP FP inh,MT1-MMP act inh,MT1-MMP act inh RFP,eIF4H FP inh,Rce1 inh,Yeast UUG start,Env fusion inh,CSC inhib,others
Cc1nc(SCC(=O)NC2CCCC2)c2oc3ccccc3c2n1,x,4,-4,x,x,-19,0,x,
CC(C)c1csc(CN2CCC(CCC(=O)NCC3CCCO3)CC2)n1 (stereo unspecified),1,-2,-4,5,x,-2,5,-12,
CC(c1ccon1)N(C)Cc1cn[nH]c1-c1ccc(-c2ccccc2)cc1 (stereo unspecified),-4,2,2,-5,i,x,-11,-2,
Cc1onc(-c2ccccc2)c1C(=O)N1CCN(S(=O)(=O)c2ccccc2Br)CC1,2,-2,-2,-3,i,-21,-3,-8,
CCOC(=O)/C=C/C(=O)OCC(=O)Nc1ccc(Cl)cc1Cl,-10,1,-4,14,i,x,-11,-2,
COc1cc(-c2nnc3sc(C4CCCCC4)nn23)cc(OC)c1OC,10,12,-4,-9,i,-7,x,7,
O=C(NCCCN1CCCC1=O)c1sc2ccccc2c1Cl,1,1,2,7,i,1,-27,-9,
C/C(=N\NC(=S)Nc1ccccc1C)c1ccc(O)cc1,70,-2,-2,-2,i,x,x,33,eIF4H FP inh retest=5;PABP FP inh retest=6
O=C(CCCSc1nc2ccccc2[nH]1)NC1=NCCS1,-3,-1,0,4,i,-9,x,6,
COc1ccc(C(C)=O)cc1CSc1nnc(Nc2ccc(C)cc2C)s1,20,-1,2,-5,i,x,2,27,
Cc1cc(C)nc(NS(=O)(=O)c2ccc(NC(=O)Cc3ccc(F)cc3)cc2)n1,-14,3,3,-20,i,-4,-15,38,
COC(=O)c1cc(C#N)c(N2CCOCC2)nc1C,2,0,2,-4,i,-15,-16,0,
C/C(N)=C(/C#N)C(=O)CSc1nc2ccccc2c(=O)n1CCCO,-4,1,2,-9,i,x,19,-10,
CC(=O)N(O)CCCCCNC(=O)CCC(=O)N(O)CCCCCNC(=O)CCC(=O)N(O)CCCCCN,9,1&2,4&3,0,i,-9&-21,7,19,
Cc1ccc(C(=O)N2CCCC(Nc3ccc(F)c(F)c3)C2)cn1 (stereo unspecified),13,2,2,3,i,-16,1,2,
CC(Sc1nc2ccccc2c(=O)n1Cc1ccco1)C(=O)c1ccccc1 (stereo unspecified),4,-11,-7,5,i,x,x,30,
Cc1cc(C)c2nc(SCC(=O)NCCC3=CCCCC3)cc(C)c2c1,-7,-2,-11,-5,i,-19,-15,4,
Cc1cccc2cc(COC(=O)c3ccccc3)c(=O)[nH]c12,-4,3,5,-1,i,11,x,-5,
CCCCCc1c(C)nc(N2CCOCC2)[nH]c1=O,-7,5,1,-3,i,15,14,-5,
O=C(NCc1ccco1)C1Cc2c(-c3ccccc3Oc3ccccc3)ccnc2O1 (stereo unspecified),x,0,-5,x,x,-5,-5,x,
O=S(=O)(c1ccc(Cl)cc1)c1cnc(-c2cccnc2)nc1-c1ccccc1,-8,-4,-5,8,i,-15,-10,-23,
CCCc1nnc2c(N(C)S(=O)(=O)c3ccccc3)nc3ccccc3n12,6,-3,1,-8,i,x,-16,7,
CCn1nc(NC(=O)c2ccccn2)c2cc3cc(C)ccc3nc21,-6,-1,0,-7,i,-18,x,-10,
Cc1ccc(-c2nnc(-n3ncc(C#N)c3N)c3ccccc23)cc1C,1,-6,-3,-5,i,x,2,8,
Cc1ccc(OCC(=O)NNC(=O)C(=O)N2CCCC2)c(C)c1,u,-4,2,2,i,x,14,-13,
Cc1nc2ccccc2c2oc(C(=O)NCCCN3CCCC(C)C3)cc12 (stereo unspecified),13,-2,-4,5,i,-6,-5,-7,
CCn1c(CNc2ccc(C)cc2C)nnc1SCC(=O)N1CCCc2ccccc21,6,-3,-6,20,i,-18,8,-15,
CCN1CCN(c2ccc(S(=O)(=O)N3CCCCC3)cc2NC(=O)Cc2ccccc2)CC1,x,-2,-1,x,i,-8,-10,-9,
Cc1ccc(S(=O)(=O)N2CC(C(=O)O)=CC[C@H]2c2ccc3c(c2)OCO3)cc1,x,1,0,x,x,-4,u,0,
COc1ccc(/C=N\NC(=O)CC(=O)Nc2cccc(Cl)c2)cc1OC,4,0,2,-5,i,x,3,3,

# The list goes on (3 carried over from the part before).
SMILES,PABP FP inh,MT1-MMP act inh,MT1-MMP act inh RFP,eIF4H FP inh,Rce1 inh,Yeast UUG start,Env fusion inh,CSC inhib,others
CCN1CCN(c2ccc(S(=O)(=O)N3CCCCC3)cc2NC(=O)Cc2ccccc2)CC1,x,-2,-1,x,i,-8,-10,-9,
Cc1ccc(S(=O)(=O)N2CC(C(=O)O)=CC[C@H]2c2ccc3c(c2)OCO3)cc1,x,1,0,x,x,-4,u,0,
COc1ccc(/C=N\NC(=O)CC(=O)Nc2cccc(Cl)c2)cc1OC,4,0,2,-5,i,x,3,3,
O=C(NCc1ccccc1)c1cc(C2CCCN(C(=O)C3CCCCC3)C2)on1 (stereo unspecified),x,5,-2,x,x,21,10,x,
O=C(NCCCN1CCOCC1)c1cccnc1,-4,6,8,-2,i,-9,5,-11,
COC(=O)c1scc(C)c1N/N=C(\C)c1cc(F)c(Cl)cc1F,-1,7,-2,2,i,-14,-12,-9,
COc1ccc(-c2ccc(SC)nn2)cc1,-14,2,3,-7,i,-65,16,80*,
